NPYLR7 agonist = mosquito NPYLR7 agonism | HEK293T NPYLR7/Galpha15, GCaMP6s calcium fluorescence | activation, % at 10 µM | 0.15% of 270,000 active; in the data active means activation above about 40%;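 further: 0% = vehicle and 100% = reference agonist at the receptor; some compounds past the cut are filed as inactive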
NPYLR7 agonist max-min = recorded beside NPYLR7 agonist, whose call it bears; activation, %; measured here: Max-Min RFU normalised activation; some inactives read as strong as hits;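 span of the calcium signal over five minutes; 0% = vehicle and 100% = native peptide agonist; compound fluorescence can raise it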
An asterisk follows results filed as active. An excerpt; rates above refer to the full screens.

Values run as follows: NPYLR7 agonist	NPYLR7 agonist max-min
> O=C(c1ccc(F)cc1)N1CCCC(OCc2cccc(C(F)(F)F)c2)C1 (stereo unspecified)
 : -3	2
> COc1ccc(-c2nc(SCc3nc(-c4cccs4)no3)n[nH]2)cc1
 : 0	-2
> CC1Cc2ccccc2N1C(=O)c1ccc(S(=O)(=O)NC2CC2)o1 (stereo unspecified)
 : 0	-1
> Cc1nc2c(C)cccn2c(=O)c1NC(=O)c1ccc2c(c1)OCO2
 : 4	2
> CC(O)c1ccc(-c2ccc(C(N)=O)cc2)cc1 (stereo unspecified)
 : 10	6
> CCCCC(Sc1ccc2nnc(-c3cccnc3)n2n1)C(=O)O (stereo unspecified)
 : 1	1
> O=C(CNc1ccccc1SC(F)F)N1CCNC1=O
 : 1	2
> CSCc1noc(-c2cn(CCc3ccccc3)nn2)n1
 : -6	-4
> [O-]/[N+](=C\c1ccco1)C/C(=N\O)c1cccs1
 : -10	-11
> CC(=O)Oc1c(C)cc(CNCc2ccccc2-n2ccnc2C)cc1C
 : -2	-6
> CCOc1ccc(CN2C(=O)C3(SC(NC(C)=O)=NN3C(C)=O)c3ccccc32)cc1 (stereo unspecified)
 : 12	9
> Cc1nn(C(C)C(=O)NC2CCC(C)CC2)c(=O)c2cc3sccc3n12 (stereo unspecified)
 : 8	9
> CCCCN1N=C(C)Cn2c1nc1c2c(=O)n(C)c(=O)n1C
 : -6	-7
> Cc1n[nH]c(C)c1CCC(=O)N1CCNC(=O)C1c1ccc(F)cc1 (stereo unspecified)
 : -1	-2
> CCCN(CC1CCCO1)c1ncnc2oc(C)nc12 (stereo unspecified)
 : 1	0
> CCOC(=O)C1=C(C(=O)c2ccccc2)C(c2ccc(OC)cc2)NC(=O)N1C (stereo unspecified)
 : -2	-7
> O=C(N[C@@H]1CCCC[C@H]1c1ccccc1)c1cn(CCCc2ccccc2)nn1
 : 15	5
> CC(Sc1nnc(C2CC2)n1C1CC1)C(=O)Nc1ccnn1C(C)C (stereo unspecified)
 : 0	0
> Cc1cc(N2CCN(c3ccccc3F)CC2)nc(SCc2cccc(C(=O)N3CCOCC3)c2)n1
 : -3	2
> Cc1nc(C(F)(F)F)ccc1C(=O)N1CCC1(C)C(=O)NS(=O)(=O)Cc1cccc(Cl)c1 (stereo unspecified)
 : 3	3
> CN1CCN(/C=C(\C#N)C(=O)NCc2ccccc2)CC1
 : 6	4
> COc1ccc(CC2CCN(C(=O)c3cc(Cl)cc(Cl)c3)CC2)cc1
 : 3	-10
> COc1ccccc1OCc1cc(C(=O)NCc2ccccc2)n[nH]1
 : 18	3
> C=CCN(Cc1csc(COc2c(OC)cccc2OC)n1)C(=O)c1ccc2c(c1)OCO2
 : 4	17
> Cc1ccc(Cl)cc1-n1nnc(C(=O)Nc2ccccc2Cl)c1C
 : -2	-6
> CCC(=O)N1CCCC1(C)C(=O)Nc1ncc(C)s1 (stereo unspecified)
 : 6	3
> Cc1nc(CNC2CC2)[nH]c(=O)c1Cc1cccc(C(F)(F)F)c1
 : 17	3
> O=C1SCCN1CCC(=O)N(c1ccccc1)c1cc2ccccc2c(=O)[nH]1
 : -6	-4
> Oc1ccc2ccccc2c1C=NCc1cn2ccsc2n1
 : -3	-6
> Cc1cc(N)n(-c2nc3c(cnn3-c3cccc(C)c3C)c(=O)[nH]2)n1
 : 5	5
> O=C(CN1C(=O)NC2(CCc3ccccc32)C1=O)NC1CCCCCC1 (stereo unspecified)
 : 0	-3
> O=C1OCCN1c1ccccc1NCc1ccc(Br)cc1
 : -1	-3
> O=C(CSc1nc2c(cnn2-c2ccc(Cl)cc2)c(=O)[nH]1)NCc1ccc2c(c1)OCO2
 : -2	-1
> Cn1ccc(C2CCCCN2S(=O)(=O)NCc2ccccc2)n1 (stereo unspecified)
 : 6	4
> Cc1c(C(C)NC(=O)CCN2CCCO2)cnn1-c1cccc2ccccc12 (stereo unspecified)
 : 7	2
> CC(NC(=O)N1CCc2ccccc2C1)c1ccc2c(c1)OCO2 (stereo unspecified)
 : -5	-6
> COc1cc2c(cc1CN1CCC(CNC(C)=O)C1)OCCCO2 (stereo unspecified)
 : -1	-1
> Cc1nccn1CC1CCCN(Cc2ccc(Cn3cccn3)cc2)C1 (stereo unspecified)
 : -2	-11
> Cc1ccc(C(=O)N=c2sccn2C(C(=O)NCCN(C)C)c2ccccc2)cc1 (stereo unspecified)
 : 2	1
> CN(CCCc1cnn(C)c1)C(=O)c1ccc(-c2ccn[nH]2)cc1
 : 26	14
> COC(=O)C1CSCN1 (stereo unspecified)
 : -4	-7
> CC[C@H](CO)NCCN[C@H](CC)CO
 : -1	-4
> CCC(CC)(C(=O)O)C(=O)O
 : 1	-1
> CCCCOc1ccccc1C(=O)N1CCOC(C(F)(F)F)C1 (stereo unspecified)
 : 7	5
> O=C1CCC(CCC(=O)N2CCC(c3ccccc3Cl)C2)(Cc2cccs2)N1 (stereo unspecified)
 : 8	1
> CC(C)C(C)(C#N)NC(=O)c1ccc(Br)o1 (stereo unspecified)
 : 0	1
> CN(C)S(=O)(=O)c1ccc(I)cc1
 : 6	2
> Cc1cccn2cc(Cn3ccnc3-c3ccc(CO)o3)nc12
 : 4	2
> CCCC(=O)N(CCN1CCOCC1)c1nc2c(OC)ccc(C)c2s1
 : 5	1
> CCCNC(=O)CSc1nc(N)c(NC(=O)c2ccc(OCC)cc2)c(=O)[nH]1
 : -7	-6
> CC(=O)Nc1ccc(NC(=O)C23CC4CC(CC(Cl)(C4)C2)C3)c(C(F)(F)F)c1
 : 3	1
> CN(C)C(CNC1CC2CC1C1CCCC21)c1ccco1 (stereo unspecified)
 : 3	2
> Cc1cc(S(=O)(=O)N[C@H]2CCCCNC2=O)c(C)cc1Cl
 : 0	-6
> CN(C)S(=O)(=O)Nc1ccc2c(c1)NC(=O)CC2c1ccc(Cl)cc1 (stereo unspecified)
 : 17	10
> CC1(Cc2ccccc2Cl)C(=O)Nc2ccc(OC(F)(F)F)cc21 (stereo unspecified)
 : 2	2
> CCC(C)C(=O)NCC(=O)OCc1cc(Cl)c2nccn2c1 (stereo unspecified)
 : 4	3
> CCOC(=O)/C(=C/c1ccccc1[N+](=O)[O-])NC(=O)c1c(-c2ccccc2)noc1C
 : -15	-20
> O=C(/C=C/c1cccnc1)Nc1ccccc1CN1CCCC1
 : 9	5
> CC(C)(C)C1CCC(OC(=O)c2ccco2)CC1 (stereo unspecified)
 : 4	-1
> COc1cccc2sc(NC(=O)c3ccc(S(=O)(=O)N4CCc5ccccc5C4)cc3)nc12
 : -3	2

Some values from the results shown:
NPYLR7 agonist max-min, COc1cccc2sc(NC(=O)c3ccc(S(=O)(=O)N4CCc5ccccc5C4)cc3)nc12 : 2
NPYLR7 agonist max-min, CC1(Cc2ccccc2Cl)C(=O)Nc2ccc(OC(F)(F)F)cc21 (stereo unspecified) : 2

Continued:
Values run as follows: NPYLR7 agonist	NPYLR7 agonist max-min
> O=C(c1csc2nc(-c3cccc(F)c3)cn12)N1CCc2ccccc2C1
 : -2	-6
> CCc1nc2ccc(C(=O)N(C)Cc3ccco3)cn2c1N(C)Cc1cc2ccccc2s1
 : -5	-8
> CC(Cn1cccn1)NC(=O)CCC(=O)Nc1ccc(F)c(Cl)c1 (stereo unspecified)
 : 4	2
> O=C(Oc1ccccc1Br)c1ccc2ccccc2c1
 : 0	-1
> CC(=O)NC1=NN(C(C)=O)C2(S1)C(=O)N(Cc1ccccc1)c1ccc(Br)cc12 (stereo unspecified)
 : 3	2
> COCc1nc(-c2ccc(CN3CCN(C(=O)c4ccccc4C#N)CC3)cc2)no1
 : -1	-1
> c1ccc2[nH]c(CC3CCCN(Cc4cc5n(n4)CCNC5)C3)nc2c1 (stereo unspecified)
 : 1	4
> CCOC(=O)c1[nH]ncc1CN1CCCC(CCC(=O)Nc2cc(Cl)ccc2OC)C1 (stereo unspecified)
 : 16	2
> COc1ccc(-n2c(SCC(=O)Nc3c(C)cc(C)cc3C)nc3c(c2=O)SCC3)cc1OC
 : -10	-12
> NC(=O)C1CCCC1NC(=O)CCS(=O)(=O)C1CCCC1 (stereo unspecified)
 : 4	2
> CCc1cnc(-c2c[nH]c3ccc(C)cc23)nc1
 : -2	-6
> Cn1c(N)c(C(=O)CSc2nnc(C3CC3)n2C2CC2)c(=O)n(C)c1=O
 : 9	7
> Cc1ccccc1C(c1cnccn1)N(C)C(=O)C1CCN(S(=O)(=O)c2c(C)noc2C)CC1 (stereo unspecified)
 : -15	-14
> COC(=O)CCCC(=O)N1CCCC(Nc2ccc(OC)c(OC)c2)C1 (stereo unspecified)
 : 0	-5
> CC(C)(C)c1cc(CN2CCC(CNS(C)(=O)=O)C2)[nH]n1 (stereo unspecified)
 : 5	4
> C=C(C)Cn1c(NCCCOCC)nc2c1c(=O)[nH]c(=O)n2C
 : 4	-2
> CCCc1cc(NCCOC)n2nc3nc(C)cc(C)c3c2n1
 : 2	10
> Cc1nc2sccn2c(=O)c1NC(=O)c1ccc(F)cc1F
 : 11	0
> COc1ccc(-c2onc3c2CCc2ccccc2-3)cc1NC(=O)c1ccc2nonc2c1
 : 1	0
> CCSc1nc(CC(=O)NC(CC)c2cnn(C)c2)cs1 (stereo unspecified)
 : -4	-5
> Cc1ccn2c(CNCCCn3cccn3)c(C(=O)N3CCCCCC3)nc2c1
 : 3	1
> O=C(c1cccc(F)c1)N(Cc1ccc(OCc2nc(CO)cs2)cc1)C1CC1
 : -2	7
> CN(CC1CCCCO1)C(=O)c1ccc2cccnc2n1 (stereo unspecified)
 : 6	5
> COCCCNC(=O)c1cc(-c2cccc(OC)c2)nc2cc(-c3ccccc3)nn12
 : 20	27
> Cc1cc(C(=O)CSc2nnc3n2CCCCC3)c(C)n1-c1ncn[nH]1
 : 10	8
> CC(C)Cn1c(N)n[nH]c1=S
 : 2	-2
> O=C(Cc1cccc(Cl)c1)N1CCOC(COc2ccc3c(c2)CCCC3)C1 (stereo unspecified)
 : -5	-8
> NS(=O)(=O)c1ccc(N2C(=O)CSC2=S)cc1
 : -5	-13
> COc1cc(C(=O)NC(Cc2ncc[nH]2)c2ccccc2)ccc1C (stereo unspecified)
 : 1	0
> CC(C)(C)c1ccc(COc2coc(CN3CCCN(C(=O)c4cnn(-c5ccccc5)c4C(F)(F)F)CC3)cc2=O)cc1
 : 11	-2

2 records drawn at random from the list so far, as already listed:
Values run as follows: NPYLR7 agonist	NPYLR7 agonist max-min
> C=C(C)Cn1c(NCCCOCC)nc2c1c(=O)[nH]c(=O)n2C
 : 4	-2
> Cc1nc2sccn2c(=O)c1NC(=O)c1ccc(F)cc1F
 : 11	0

Ordered by formula weight (highest first): 6 of the compounds above.
Values run as follows: NPYLR7 agonist	NPYLR7 agonist max-min
> CC(C)(C)c1ccc(COc2coc(CN3CCCN(C(=O)c4cnn(-c5ccccc5)c4C(F)(F)F)CC3)cc2=O)cc1
 : 11	-2
> COc1cc(C(=O)NC(Cc2ncc[nH]2)c2ccccc2)ccc1C (stereo unspecified)
 : 1	0
> CCSc1nc(CC(=O)NC(CC)c2cnn(C)c2)cs1 (stereo unspecified)
 : -4	-5
> Cc1nc2sccn2c(=O)c1NC(=O)c1ccc(F)cc1F
 : 11	0
> NS(=O)(=O)c1ccc(N2C(=O)CSC2=S)cc1
 : -5	-13
> CN(CC1CCCCO1)C(=O)c1ccc2cccnc2n1 (stereo unspecified)
 : 6	5

Further records.
Values run as follows: NPYLR7 agonist	NPYLR7 agonist max-min
> O=C(c1cccc(OC(F)F)c1)N1CCN(Cc2cccc(-c3noc(-c4ccccc4)n3)c2)CC1
 : 5	-1
> CCCc1nc(N2CCCN(C(=O)Nc3ccc(Cl)cc3)CC2)c2c(-c3ccccc3)noc2n1
 : 20	13
> CC(C)c1ncc(CN2C[C@@H]3C4CCC(CC4)[C@@H]3C2)cn1
 : -2	1
> COc1ccccc1N1C(=O)CSC1c1ccccc1NC(=O)c1ccc([N+](=O)[O-])cc1 (stereo unspecified)
 : -2	2
> Cc1ccc(N2C(=O)CS(=O)(=O)C23C(=O)Nc2ccccc23)cc1C (stereo unspecified)
 : 1	-2
> O=C(O)C1CC12CCN(C(=O)C1(c3cccc(Br)c3)CCOCC1)CC2 (stereo unspecified)
 : 11	7
> Cc1cc(-n2ccnc2C)n2c(nc3ccccc32)c1C#N
 : 3	-2
> COc1ccc(-c2cnc(-c3cccc(CNC(=O)COc4ccccc4)c3)[nH]2)cc1
 : 3	10
> COC(=O)C(c1cccnc1)N1CCN(C(=O)c2ccc(Cl)cc2)CC1 (stereo unspecified)
 : 5	6
> COc1ccc(S(=O)(=O)Oc2ccccc2CN(C(=O)NC(C)(C)C)C2CC2)cc1
 : -7	-5
> Cc1nc(SCC(=O)Nc2sc3c(c2C#N)CCC3)c2c3c(sc2n1)CCCC3
 : -4	-9
> CC(C)(C)C1CCc2sc(C(=O)NN3C(=O)NC4(CCCCC4)C3=O)cc2C1 (stereo unspecified)
 : -1	8
> Cc1nc(SCC(=O)c2c(N)n(C3CC3)c(=O)[nH]c2=O)n(C2CCCC2)c1C
 : 3	1
> CCc1nc(C2CN(C(=O)c3cnc4n[nH]c(C)c4c3)CCO2)n[nH]1 (stereo unspecified)
 : -3	-4
> COC(=O)c1ccc(CN2CCC3(CC2)C(=O)N(CCc2ccccc2)C(=O)N3C)cc1
 : 8	-2
> Cc1ccnc(NC(=O)NCCCSc2nc(C)cc(C)n2)n1
 : 13	8
> CN(C)c1cc(Cl)nc(SCC(=O)O)n1
 : 34	31
> CCCn1c(C(C)NCCOC)nc2ccccc2c1=O (stereo unspecified)
 : 12	13
> CC1CN(c2nc(-c3ccccc3)nc3c2CN(C(=O)c2cccs2)CC3)CC(C)O1 (stereo unspecified)
 : -6	-3
> CC(=O)Cc1nsc(N(C)C(=O)CC2CCCCC2)n1
 : 10	1
> COc1cccc(C(=O)NCC2Cc3cc(C(C)(C)C)ccc3O2)c1 (stereo unspecified)
 : 3	4
> C=CCN(C(=O)C1CCCO1)c1nc(-c2ccc(S(C)(=O)=O)cc2)cs1 (stereo unspecified)
 : 6	2
> O=S(=O)(NCCNS(=O)(=O)c1cccs1)c1cccs1
 : 2	3
> Cc1cc(N(C)C)nc(NCCNC(=O)c2ccc(Br)o2)n1
 : 0	-2
> O=C(CSc1nc(=O)n(CC2CCCO2)c2c1CCCC2)Nc1ccccc1 (stereo unspecified)
 : -4	-7
> COc1ccc(-c2nn(-c3cccc(C)c3)c(OC(C)=O)c2-c2ccc(NC(=O)c3cccs3)cc2)cc1OC
 : -2	1

Source: PubChem BioAssay
